# High-throughput results (PubChem BioAssay)
# KCNQ2 pot: KCNQ2 (rat) channel potentiation; B-score at 10 µM; AID 2239; 310,000 tested, 0.54% active; CHO-K1 KCNQ2, FluxOR thallium flux fluorescence; hits give high values; O88943;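 active = fluorescence ratio B-score at least 3 SD of library B-scores, with initial fluorescence B-score within 3 SD, cut at about 5.3 in these data; same plate scores as AID 2156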;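 note: B-score of peak minus minimum over baseline fluorescence ratio after K+ and Tl+ stimulus; positive B-score means potentiation of KCNQ2 with more thallium influx and brighter signal; only the inactives scoring about 0 or higher are listed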
# Target sequence (O88943 whole entry, looked up): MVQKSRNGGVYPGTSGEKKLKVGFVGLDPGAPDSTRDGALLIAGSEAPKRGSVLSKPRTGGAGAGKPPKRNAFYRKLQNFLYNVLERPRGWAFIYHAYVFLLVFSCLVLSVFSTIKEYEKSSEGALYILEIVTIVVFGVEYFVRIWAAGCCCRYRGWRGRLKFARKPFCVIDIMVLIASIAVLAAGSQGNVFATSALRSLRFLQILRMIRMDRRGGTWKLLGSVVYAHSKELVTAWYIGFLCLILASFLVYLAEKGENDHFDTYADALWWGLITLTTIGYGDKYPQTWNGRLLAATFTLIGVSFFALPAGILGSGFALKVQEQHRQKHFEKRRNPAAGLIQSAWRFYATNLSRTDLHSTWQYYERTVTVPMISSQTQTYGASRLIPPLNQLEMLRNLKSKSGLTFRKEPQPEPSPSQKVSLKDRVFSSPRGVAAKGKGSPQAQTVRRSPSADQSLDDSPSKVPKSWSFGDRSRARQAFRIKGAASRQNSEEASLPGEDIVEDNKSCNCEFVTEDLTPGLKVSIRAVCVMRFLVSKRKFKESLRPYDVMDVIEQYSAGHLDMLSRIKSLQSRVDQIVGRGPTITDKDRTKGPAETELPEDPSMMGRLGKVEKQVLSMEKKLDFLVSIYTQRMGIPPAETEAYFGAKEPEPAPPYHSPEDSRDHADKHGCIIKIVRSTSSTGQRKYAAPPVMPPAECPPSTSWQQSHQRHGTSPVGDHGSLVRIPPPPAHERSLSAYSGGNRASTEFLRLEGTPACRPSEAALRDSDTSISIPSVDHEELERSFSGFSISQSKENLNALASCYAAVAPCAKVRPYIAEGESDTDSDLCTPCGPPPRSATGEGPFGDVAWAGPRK
# KCNQ2 pot baseline: also measured in KCNQ2 pot; calls as there; B-score; compound at 10 µM; measured here: initial fluorescence intensity artifact check;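 brightness before thallium and not channel activity; 0 = typical well and far values either way flag optical interference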
# * hit, by the source's call. Only part of the results is shown; count on the stated rates, not on these rows.
SMILES,KCNQ2 pot,KCNQ2 pot baseline
O=C(CN(c1ccc(F)cc1)S(=O)(=O)c1ccccc1)NCc1ccco1,0.01,0.24
COc1ccc(CNC(=O)C(NC(C)=O)C(=O)Nc2ccc(C(C)C)cc2)cc1 (stereo not drawn),0.57,-0.24
CCOc1cc(NC(=S)NCCCN2CCOCC2)c(OCC)cc1NC(=O)C1CC1,0.4,-0.57
OCCC1CN(Cc2nc(-c3ccccc3)cs2)CCN1Cc1ccc(F)cc1 (stereo not drawn),0.3,-1.5
CCOc1ccc(-n2c(SCC(N)=O)nc3c(c2=O)SCC3)cc1,0.49,0.01
O=C1CCC(=O)N1c1ccc(S(=O)(=O)Nc2ccc(Br)cc2)cc1,1,0.3
CCCCC(CC)CNC(=O)C1C2C=CC(C2)C1C(=O)O (stereo not drawn),0.23,1.5
O=C1c2ccccc2C(=O)N1CCCCSc1nnnn1-c1ccccc1,0.87,-4.8
Cc1ccc(S(=O)(=O)N2CCOCC2)cc1NC(=O)COC(=O)CNC(=O)c1ccc(C(C)(C)C)cc1,2.1,-0.03
CCOc1ccccc1OCCC(=O)OCC(=O)Nc1c(C)nn(-c2ccccc2)c1C,2.6,-1.6
COc1cc(NC(=O)CSc2nnnn2Cc2ccccc2)cc(OC)c1,0.49,0.02
C/C(N)=C(/C#N)C(=O)CSc1nnc(-c2ccc3c(c2)OCO3)o1,0.68,2.4
Cc1cnc(NC(=O)COc2ccc3c(c2)CCC3)s1,1.5,-0.4
O=C(Cn1cnc2c(nnn2Cc2ccc(F)cc2)c1=O)NCc1ccc(F)cc1,1.2,-0.68
C#CCNC(=O)/C=C/c1ccc(OC)cc1,1.2,0.58
CC(=O)c1ccc(N2CCN(CC(O)COCc3ccco3)CC2)cc1 (stereo not drawn),1.5,-0.13
CCOc1ccc(NC(=O)CCNS(=O)(=O)c2ccc3c(c2)c(=O)n(C)c(=O)n3C)cc1,0.12,0
NS(=O)(=O)c1ccc2c(c1)C1C=CCC1C(C1CC=CCC1)N2 (stereo not drawn),0.33,-0.07
COc1cc(C(=O)Nc2nc3ccccc3s2)ccc1OCc1c(C)noc1C,0.04,-1.1
C/C(=N\NC(=O)C1CC1)c1cccs1,3.1,-0.42
O=C(N/N=C/c1cc2ccccc2nc1Cl)[C@H]1C[C@@H]1c1ccccc1,0.05,-1.1
Cc1cc(C(=O)O)sc1C,1.1,0.82
Cc1snc2sc(C(=O)c3ccc(Br)cc3)c(N)c12,0.85,-0.84
COC(=O)c1c[nH]c(=O)c2ccccc12,0.09,1.5
O=C(/C=C/c1cccc([N+](=O)[O-])c1)OCC(=O)c1ccccc1,0.02,-1.7

# Continuation.
SMILES,KCNQ2 pot,KCNQ2 pot baseline
COc1ccc(OCC(=O)N/N=C/c2cccc3cccnc23)cc1,2.5,0.01
CN(C)c1ccc(C(=S)N2CCOCC2)cc1Br,0.07,2.3
Cc1ccc(C)c(N2CCN(C(=O)CCS(=O)(=O)c3ccc4c(c3)oc(=O)n4C)CC2)c1,0.01,1.5
CCC(=O)NCCc1nc(-c2ccccc2)no1,0.13,-0.13
Cc1cc(C)cc(NS(=O)(=O)c2ccc(NC(=O)C3CCCCC3C(=O)O)cc2)c1 (stereo not drawn),0.52,-0.92
Cc1ccc(S(=O)(=O)c2nc(C)c3c(n2)CCC3)cc1,0.47,0.42
O=C(Nc1nc2ccccc2[nH]1)C1CC(=O)N(c2ccc3c(c2)OCCO3)C1 (stereo not drawn),0.11,0.01
COC(=O)C1CCN(C(=O)CN2C(=O)c3ccccc3S2(=O)=O)CC1,1.3,0.03
COCCOC(=O)c1c(N)n(CCCN2CCOCC2)c2nc3ccccc3nc12,0.29,-0.93
CCOc1ccccc1NC(=O)Nc1cccc(C(C)=O)c1,1.9,-0.05
CCCCn1c(=O)[nH]c(=O)c2c1nc(-c1ccc(CC)c([N+](=O)[O-])c1)n2C,2.4,-0.49
c1nnnn1C12CC3CC(CC(C3)C1)C2,0.2,0.28
Cn1c(=O)[nH]c(=O)c2c1nc(N1CCOCC1)n2CC(O)COc1ccc2ccccc2c1 (stereo not drawn),1,-0.08
CC(C)Sc1ccc([N+](=O)[O-])cc1C(=O)Nc1ccncc1,0.16,0.17
CC(NC(=O)c1cccs1)c1nnc(SCc2ccc(Cl)cc2Cl)n1C (stereo not drawn),0.36,0.01
O=C(CN(Cc1ccccc1)C(=O)CCC(=O)Nc1nccs1)NCc1ccc(F)cc1,1.4,0.89
CC(c1ccccn1)N(CCN(C)C)C(=S)Nc1ccccc1F (stereo not drawn),0.31,0.14
O=C(Nc1ccc2c(c1)OCO2)Nc1ccc(Br)cn1,0.9,-2
O=C(NC1CCCC1)C1CC(=O)N(CCc2ccccc2)C1 (stereo not drawn),0.59,-0.01
CN(c1ccc(C(=O)Nc2ccccn2)cc1)S(=O)(=O)c1ccccc1,0.65,-0.03
O=C(c1cncc(Br)c1)N1CCN(S(=O)(=O)c2ccccc2)CC1,1.4,-0.24
CCN(c1ccccc1)S(=O)(=O)c1c[nH]c2ccc([N+](=O)[O-])cc12,0.31,0.4
Cc1cc(OCC(=O)N[C@@H](Cc2c[nH]c3ccccc23)C(=O)O)c2c(C)c(C)c(=O)oc2c1,1.1,0.1
O=C1S/C(=C\c2ccccn2)C(=O)N1Cc1ccccc1F,0.14,-0.69
COc1ccc(-c2nc(O)c3cnccn23)cc1,2.3,-1.6

# (further entries)
SMILES,KCNQ2 pot,KCNQ2 pot baseline
CC(C)C[C@@H](N)c1nnc(SCC(=O)c2ccc(Cl)cc2)o1,0.22,0.02
COc1cccc2c(=S)c(CCC(C)=O)c(C)[nH]c12,2.9,0
COC(=O)c1ccccc1S(=O)(=O)N(CCCN1CCOCC1)Cc1cccs1,1.9,-0.06
C=CCOc1ccc(/C=C/C(=O)OCC(=O)NCCc2ccccc2)cc1,1,-0.92
CCc1cc(CNC(=O)c2ccc(OC3CCN(C(C)=O)CC3)c(OC)c2)on1,1,0.04
Cc1sc2nc(COC(=O)c3ccc(O)cc3)[nH]c(=O)c2c1C,2.3,-0.69
CC(C)(C)c1ccc(S(=O)(=O)NC(Cc2ccccc2)C(=O)O)cc1 (stereo not drawn),0.03,-1
COc1ccc(-n2c(COc3ccc4c(c3)OCO4)nnc2SCC(=O)O)cc1,0.8,-0.62
CCn1c(CNC(=O)c2ccc(Cl)cc2)nnc1SCC(=O)NC1=NCCS1,1.5,-1.1
CCOC(=O)N1CCN(C(=O)CSc2ncccn2)CC1,0.49,1.3
Cc1cccc(NS(=O)(=O)c2ccc(NC(=O)CN(c3cc([N+](=O)[O-])ccc3C)S(C)(=O)=O)cc2)c1,0.02,-0.32
O=C(Nc1ccc2c(c1)oc1ccccc12)c1cccnc1,1,-0.03
O=C(c1ccc(C(F)(F)F)cc1)C1CCCN(C(=O)Cn2cnnn2)C1 (stereo not drawn),1.4,0.64
Cn1c2ccc(F)cc2c2nnc(SCCN3CCCCC3)nc21,2.3,-1.4
COC(=O)C1CCN(C(=O)c2ccccc2NC(C)=O)CC1,0.74,0.18
COc1ccccc1NC(=O)c1nc(S(=O)(=O)Cc2ccccc2)ncc1Cl,0.35,-0.42
O=C(NC(=S)Nc1ccccc1N1CCCC1)c1ccc([N+](=O)[O-])cc1,0.7,1.1
Cc1cccc(-n2c(N)cc(=O)[nH]c2=S)c1,0.92,0.43
OCCC1CN(Cc2ccccc2O)CCN1CCc1ccccc1 (stereo not drawn),0.15,1.1
O=C(c1c[nH]c2ccc(F)cc2c1=O)N1CCCCCC1,0.39,-1.1
CCOC(=O)c1cnc2c(Cl)cccc2c1NCCCN1CCOCC1,1.4,-1.7
CCOC(=O)c1cc(CC)sc1N1C(=O)CC(Sc2ncccc2C(=O)O)C1=O (stereo not drawn),0.14,-1.5
COc1cccc(NC(=O)CN2C(=O)CSc3ccc(S(=O)(=O)N4CCOCC4)cc32)c1,0.13,2
CCN1CCN(c2cc(=O)n(C3CCCCC3)c(=O)[nH]2)CC1,0.34,0.6
O=C1[C@@H]2Cc3c([nH]c4ccccc34)C(c3ccccc3)N2C(=O)CN1CCO (stereo partly drawn),2.4,-0.48

# 5 compounds from above, arranged by SMILES length, rising:
SMILES,KCNQ2 pot,KCNQ2 pot baseline
Cc1cc(C(=O)O)sc1C,1.1,0.82
O=C(c1c[nH]c2ccc(F)cc2c1=O)N1CCCCCC1,0.39,-1.1
Cc1ccc(S(=O)(=O)c2nc(C)c3c(n2)CCC3)cc1,0.47,0.42
C/C(N)=C(/C#N)C(=O)CSc1nnc(-c2ccc3c(c2)OCO3)o1,0.68,2.4
CCOC(=O)c1cc(CC)sc1N1C(=O)CC(Sc2ncccc2C(=O)O)C1=O (stereo not drawn),0.14,-1.5

# (listing goes on)
SMILES,KCNQ2 pot,KCNQ2 pot baseline
O=C(c1ccccc1)N1CCN(c2ccccc2F)CC1,1.6,-1
C/C(CC(=O)Nc1ccc(N(C)C)cc1)=N\NC(=O)c1ccccc1F,0.75,-1.6
Cc1cc(Br)ccc1NS(=O)(=O)c1c(C)[nH]c(=O)[nH]c1=O,2.3,1.5
Cn1c(Cn2cnc3ccccc32)nnc1SCC(=O)CC(=O)Nc1ccccc1,1.7,1.2
COc1ccc(NC(C)=O)cc1NC(=O)CSc1nc2ncccc2[nH]1,0.07,1.2
Cc1cccc(N2CCN(C(=O)C3CCN(S(=O)(=O)c4cccnc4)CC3)CC2)c1C,0.1,0.11
CCO[C@@H]1OC(C(=O)NC2CC2)=C[C@H](C)[C@H]1CCCO,0.93,-0.3
CN1C(=O)C(C)(C)c2cc(S(=O)(=O)NCc3ccc(Cl)cc3)ccc21,0.4,-3.1
COc1ccccc1NC(=O)N1CCN(c2ccc(F)cc2)CC1,1.7,-0.34
NS(=O)(=O)c1cccc(NS(=O)(=O)c2ccc(/C=C/C(=O)OCC(=O)c3ccccc3)cc2)c1,1.1,-0.62
Cc1ccc(C(=O)N/C(=C/c2ccco2)C(=O)O)cc1,1.2,1.3
COc1ccc(NC(=O)NC23CC4(C)CC(C)(CC(C)(C4)C2)C3)cc1,0.33,-2
C/C(=N\Nc1nc(-c2ccccn2)nc2ccccc12)c1ccc(F)cc1,0.02,0.67
Cc1cc(C)c(C(=O)c2ccc(C(=O)N3CCCCC3)cc2)c(C)c1,1.5,-0.05
COc1cccc2cc(-c3cn4ccc(C)cc4n3)c(=O)oc12,0.35,1.3
N#Cc1ccc(OCC(=O)Nc2cc(S(=O)(=O)N3CCOCC3)ccc2N2CCOCC2)cc1,0.01,-0.42
O=C(O)c1c(F)c(F)cc2ccccc12,1.5,0.33
CCn1c(COc2ccc3c(c2)CCCC3)nnc1SCC(=O)Nc1nccs1,0.03,-1.8
Cc1cc2oc(C(=O)NCc3ccncc3)c(C)c2cc1C,1.5,-2.1
Oc1[nH]c2ccccc2c1OCc1ccncc1,0.86,-1.9
O=C(NC1CCCC1)C(c1ccncc1)N(Cc1ccccc1)C(=O)Cc1cccs1 (stereo not drawn),0.05,-1.6
CCn1c(CCCNC(=O)c2cccs2)nc2ccccc21,0.59,-0.05
COC(=O)C1=C(C)N(CCCC(=O)O)C(=O)NC1c1cccc(OC)c1 (stereo not drawn),0.66,0.21
Cc1cccc(Nc2nnc(SCC(=O)Nc3ncc(C(F)(F)F)cc3Cl)s2)c1C,0.82,-1.1
O=C1CCn2nc(-c3ccc(Cl)cc3)cc2N1,0.92,-0.48

# The list continues.
SMILES,KCNQ2 pot,KCNQ2 pot baseline
NC(=O)C1CCN(CC(=O)Nc2cc(Cl)ccc2Oc2ccccc2)CC1,0.61,0.01
Cc1cc(=O)[nH]c(=S)[nH]1,0.48,-0.48
Cc1cc(C)nc(-n2ncc3c2CC(C)CC3=O)n1 (stereo not drawn),1.2,-0.16
COc1cccc(OCc2nn[nH]n2)c1,0.76,-1.6
Cc1cc2c(cc1S(=O)(=O)Nc1cccc(C)c1C)n(C)c(=O)c(=O)n2C,0.04,0.41
Cc1ccc(S(=O)(=O)NCC(=O)OCc2csc(-c3ccccc3)n2)cc1,0.64,-2.2
Cc1ccsc1C(C(=O)NCc1ccccc1)N(C(=O)c1csnn1)c1ccccc1 (stereo not drawn),0.05,-0.08
CCOc1cc(N2CCOCC2)c(OCC)cc1NC(=O)CN1CCN(Cc2ccc3c(c2)OCO3)CC1,0.91,-1.5
CN1CCN(NC(=O)/C=C/c2cccc([N+](=O)[O-])c2)CC1,0.13,2.2
COc1ccc(-n2c(C(C)(C)C)csc2=Nc2c(C)n(C)n(-c3ccccc3)c2=O)cc1,0.02,0.55
COc1ccc2cc[nH]c2c1,1.8,1.2
CCC(=O)N(Cc1cc2c(C)cc(C)cc2[nH]c1=O)C1CCCCC1,0.22,2.4
CN1C(=O)/C(=C/C=C2\SCCN2C)N(C)C1=S,1.1,-0.77
COc1ccc(NC(=S)N2CCN(C(c3ccccc3)c3ccccc3)CC2)c(OC)c1,1.8,1.3
Cc1cc(NCc2ccccc2Cl)n2nnnc2n1,0.01,1
O=C(NN1C(=O)C2C3C=CC(C3)[C@H]2C1=O)c1cccnc1 (stereo partly drawn),1.1,-0.17
CCc1c(O)nc(SCC(=O)NC(C)(C)C)n(-c2ccccc2)c1=O,0.01,-0.18
Cc1nc2nc(CCNS(=O)(=O)c3ccc(Cl)cc3)cn2nc1C,0.61,1
Nc1nc(-c2ccc(Br)s2)c(Br)s1,2.1,-3

# Single records (already shown). Order of values: KCNQ2 pot, KCNQ2 pot baseline
# Shown for COc1ccc2cc[nH]c2c1 : 1.8, 1.2
# Shown for Cc1cc(=O)[nH]c(=S)[nH]1 : 0.48, -0.48
# Shown for O=C(NN1C(=O)C2C3C=CC(C3)[C@H]2C1=O)c1cccnc1 (stereo partly drawn) : 1.1, -0.17
# Shown for Cc1nc2nc(CCNS(=O)(=O)c3ccc(Cl)cc3)cn2nc1C : 0.61, 1
# Shown for COc1cccc(OCc2nn[nH]n2)c1 : 0.76, -1.6
